# TRPML1 blocker = qHTS for Inhibitors of the Human Mucolipin Transient Receptor Potential 1 (TRPML1). Mucolipin-1 (Homo sapiens), Q9GZU1. TRPML1-inducible cells, Ca2+ dye fluorescence, FDSS; hits give low values; inhibition of EC80 agonist-evoked calcium signal. activity change, negative = inhibition, % (concentration not given with the values). actives 0.02% (n = 390,000); in the data active means activity change below about -50%; inconclusive means about -30% to -50%; inactive means above about -30%;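 also: stimulus is agonist 54-4 at its EC80 concentration; % is scaled to controls: 0 for no effect and ±100 for the full control effect; compound concentration not given in the record; the text of the record puts the active cut at -80%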
#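 Calcium fluorescence in TRPML1-DL cells induced overnight with Tet: a 110 s read after compound pin addition, then a 110 s antagonist read after challenge with 54-4 at 4 uM final (EC80).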
# Menin-MLL FL inh = qHTS Assay for Inhibitors Targeting the Menin-MLL Interaction in MLL Related Leukemias: Competition With Fluorescein Labeled MLL-derived Peptide | Fluorescence polarization, fluorescein-MLL peptide displacement from menin | FP activity change, % at 61.4 µM | 290,000 tested, under 10 active | AID 1766, 2009; inconclusive = falling polarisation curve, or a change in total fluorescence; inactive = total fluorescence flat and polarisation flat or rising; no compound was filed as active; the % refers to the polarisation; negative = inhibition;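 also: % of control where 0% means no effect; inhibitors lower the polarisation; unlabelled MLL peptide was the positive control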
# gsp agonist = qHTS for Agonist of gsp, the Etiologic Mutation Responsible for Fibrous Dysplasia/McCune-Albright Syndrome: qHTS | gsp mutant cells, cAMP HTRF, 30 min; control for the full effect not named in the record | actives 0.13% (n = 340,000) | AID 624287, 2012 | Potency, µM (series often up to 76.9 µM), without a hit: at the top dose activation (cAMP increase), usual class: activators; active = well fitted activation curve with a large enough effect; inconclusive = small, poorly fitted or top-dose-only effect, or another doubt; inactive = no such curve, though single readings can be large or run the other way; cell line not stated here;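 also: phosphodiesterase inhibitor Ro 20-1724 added with compounds to block cAMP breakdown; potency is read from the fitted curve at half-maximal effect; nearly all actives have a fitted effect of over 60% in size; about a fifth of the inactives were tested at one dose only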
#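 Cells stably selected in G418 were plated at 2000/well, grown 16-24 hr, then given compounds in DMSO with the PDE inhibitor […] (300 uM solution added) for 30 min at 37C; cAMP was read by HTRF.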
# ClpP mod = qHTS Assay for Activators of ClpP; Potency, µM (titrated, usually from 57.5 µM), for inactives: at the top dose activity change, negative = active; ATP-dependent Clp protease proteolytic subunit (Bacillus subtilis (strain 168)), P80244; actives 1.9% (n = 340,000); purified B. subtilis ClpP, FRET peptide cleavage, 20 min; active = well fitted falling curve with a large enough effect; inconclusive = small, poorly fitted or top-dose-only effect; inactive = no such curve, though single readings can be large or run the other way; also: potency is read from the fitted curve at half-maximal effect; the source files actives as falling curves though it sought activators and does not explain the sign; nearly all actives have a fitted effect of over 65% in size; many hits overshoot -100%
# Target sequence (P80244 whole entry, looked up): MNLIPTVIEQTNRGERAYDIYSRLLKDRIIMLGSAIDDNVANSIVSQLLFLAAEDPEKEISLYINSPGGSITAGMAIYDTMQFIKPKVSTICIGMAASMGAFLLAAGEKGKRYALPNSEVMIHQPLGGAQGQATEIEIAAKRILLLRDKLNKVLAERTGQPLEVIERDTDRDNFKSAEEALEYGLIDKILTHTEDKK
#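 ClpP 10 microg/mL final, pH 8 Tris/KCl buffer with BSA, glycerol, Tween-20; compound pinned in; FRET-FV substrate; RT 20 min; Ex320/Em430; ΔFRET vs ADEP 5.8 microM, DMSO, no enzyme.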
# TRPV1 PAM = HTS Assay for Compounds that Act as Potentiators of the Vanilloid Receptor 1; potentiation, % at 8.33 µM; actives 0.02% (n = 320,000); TRPV1-expressing cells, Fluo-8 calcium influx, capsaicin EC20 potentiation; host cell line not named in the record; control for the full effect not named in the record; Transient receptor potential cation channel subfamily V member 1 (Homo sapiens), Q8NER1; active means potentiation above 80%; inconclusive means 30% to 80%; inactive means below 30%; also: 0% is about no effect
# Target sequence (Q8NER1 whole entry, looked up): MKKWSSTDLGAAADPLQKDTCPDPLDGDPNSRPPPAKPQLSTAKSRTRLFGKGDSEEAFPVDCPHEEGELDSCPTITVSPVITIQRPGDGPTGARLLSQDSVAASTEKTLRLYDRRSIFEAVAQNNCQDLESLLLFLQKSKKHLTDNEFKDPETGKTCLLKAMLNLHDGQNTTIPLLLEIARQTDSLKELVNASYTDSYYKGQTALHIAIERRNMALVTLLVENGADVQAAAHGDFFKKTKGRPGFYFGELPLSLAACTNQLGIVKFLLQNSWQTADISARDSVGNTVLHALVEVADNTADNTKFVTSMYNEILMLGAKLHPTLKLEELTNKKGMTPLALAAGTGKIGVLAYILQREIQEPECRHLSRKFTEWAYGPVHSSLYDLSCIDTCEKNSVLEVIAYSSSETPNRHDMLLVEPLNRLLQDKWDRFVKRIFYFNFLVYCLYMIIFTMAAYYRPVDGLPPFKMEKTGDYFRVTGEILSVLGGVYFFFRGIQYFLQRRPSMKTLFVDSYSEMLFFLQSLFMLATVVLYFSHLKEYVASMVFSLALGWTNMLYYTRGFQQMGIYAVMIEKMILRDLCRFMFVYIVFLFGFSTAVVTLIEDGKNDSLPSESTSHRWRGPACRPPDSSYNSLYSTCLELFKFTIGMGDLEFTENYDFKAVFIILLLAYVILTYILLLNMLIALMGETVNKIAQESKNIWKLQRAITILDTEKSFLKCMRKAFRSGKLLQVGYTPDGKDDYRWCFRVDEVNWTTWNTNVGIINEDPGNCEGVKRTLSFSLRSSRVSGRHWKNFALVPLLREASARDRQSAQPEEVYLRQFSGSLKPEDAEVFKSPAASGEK
#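 Fluo-8 calcium influx in TRPV1-expressing cells, kinetic read (ex 480/em 520 nm). Compound added and read 3 min for agonist activity, followed by capsaicin at EC20 final and 2 min further read for enhancement.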
# Sfp PPTase inh = qHTS Assay for Inhibitors of Bacillus subtilis Sfp phosphopantetheinyl transferase (PPTase); 4'-phosphopantetheinyl transferase ffp (Bacillus subtilis), Q9F4F7; Potency, µM, without a hit: max response, negative = inhibition, usual class: inhibitors; Biochemical Sfp PPTase activity, qHTS; AID 1490, 2009; actives 3.5% (n = 310,000); active = well fitted inhibition curve with a large enough effect; inconclusive = small, poorly fitted or top-dose-only effect, or another doubt; inactive = no such curve, though single readings can be large or run the other way;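 also: the enzyme is Sfp with the accession as filed and its product quenches rhodamine fluorescence; potency is read from the fitted curve at half-maximal effect; 0% = enzyme reaction without inhibitor and -100% = no enzyme wells; top concentration of the series not given in the record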
#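 Fluorescence-quenching assay with 15 nM Sfp, 5 uM rhodamine-CoA and 12.5 uM BHQ-2-labelled ybbR peptide in pH 7.6 Hepes/MgCl2 buffer. Enzyme was pre-incubated with compound for 15 min at room temperature. Rate was taken from the 30-min fluorescence change (525/598 nm).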
# gsp antag = qHTS for Antagonists of gsp, the Etiologic Mutation Responsible for Fibrous Dysplasia/McCune-Albright Syndrome: qHTS | gsp-mutant cells, cAMP HTRF, 30 min; control for the full effect not named in the record | Potency, µM (series often up to 76.9 µM), for the others: at the top dose activity change, negative = inhibition, hits mostly inhibitors | actives 0.4% (n = 340,000) | AID 624288, 2012; active = falling curve of any shape with a large fitted effect; inconclusive = falling curve, mostly with a smaller effect; inactive = flat or rising curve; cell line not stated here;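 also: intracellular cAMP measured with PDE inhibitor Ro 20-1724 present during compound exposure; potency is read from the fitted curve at half-maximal effect; % is scaled to controls: 0 for no effect and ±100 for the full control effect; nearly all actives have a fitted effect of over 65% in size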
#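 Cells, 2000/well, grown 16–24 h in DMEM 10% FBS with 0.5 mg/ml G418, then compounds plus […] (300 uM addition stock), 30 min at 37C. cAMP read by HTRF (cAMP-d2 and anti-cAMP antibody-K in lysis buffer) after 30 min RT.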
# An asterisk follows results filed as active; ? = inconclusive; . = no result given; & = joins results of further samples; [ ] = another dose, or the depositor's remark.
SMILES,TRPML1 blocker,Menin-MLL FL inh,gsp agonist,ClpP mod,TRPV1 PAM,Sfp PPTase inh,gsp antag
O=C(CCCN1C(=O)c2ccccc2C1=O)Nc1ccccc1C(=O)N1CCOCC1,14,-2.7,-67%[inhibitor],-26%,6,-1%,11%
COc1ccc(CCn2c(S)nc3ccccc3c2=O)cc1,-2,2.9,?,-2.0%,-7,9%,6%
O=[N+]([O-])c1ccc(Cl)c(S(=O)(=O)Nc2cccc(-c3ccc(N4CCOCC4)nn3)c2)c1,32,.,5%[15.4 µM],-6.8%,11,.,-7%
CCOC(=O)CNc1c(-c2ccc(Cl)cc2)nc2cnccn12,0,-4.8,?,28µM*,-4,-26%,6%
CCOc1ccc(S(=O)(=O)N2CCCCC2)cc1NC(=O)C1CCCC1,0,.,-22%,1.7%,.,.,.
O=C1N=C(N2CCN(c3ccccc3)CC2)S/C1=C\c1cn[nH]c1-c1ccccc1,-8,.,?,12%,12,0%,0%
CCN(N=O)c1ccc(C=C2C=Cc3ccccc32)cc1,2,.,?,0.8%,.,.,-2%
COc1ccc(CN2CC(=O)N(c3ccc(C)cc3)C2=S)cc1OC,7,-1.3,-8%[15.4 µM],0.7%,-11,5%,-6%
C/C(CC(=O)N1CCCC1)=N\NC(=O)c1cc2ccccc2cc1O,-1,?,-17%,0.3%,-6,-26%,-23%
C/C(=N\NC(=O)c1cccc(S(=O)(=O)N2CCOCC2)c1)c1ccc(C#N)cc1,-11,-2.1,-3%,-0.9%,-4,3%,-9%
CCOCCc1nnc(NC(=O)c2cccc(F)c2)s1,9,3.8,-1%,0.5%,-11,11%,-2%
Cc1cccc(NC(=O)c2ccccc2OCC(=O)c2ccccc2)c1,-6,1.0,0%,-17%,16,1%,-6%
Cc1ccc(-c2cc(-c3ccc4c(c3)OCO4)c(C#N)c(N)n2)o1,-3,?,5%,35µM*,16,10µM*,-8%
O=C(O)c1ccc(/C=N\Nc2ccccn2)cc1,-3,.,-9%[15.4 µM],-0.6%,.,.,1%
CCOc1cccc(C(=O)Nc2cccc(C(=O)NC(C)(C)C)c2)c1,10,-0.5,0%,2.6%,8,4%,-11%
O=C(Nc1cccc(NC(=O)c2ccc(-c3cccc(Br)c3)o2)c1)c1ccco1,11,14,-6%,-27%,.,-13%,-17%
Cc1nc2ccccc2c(=O)n1NC(=O)c1cccc(Cl)c1,15,0.0,-4%[15.4 µM],43%,-8,26%,-20%
Cn1c(SCC(=O)NCc2ccc3c(c2)OCO3)nnc1C1COc2ccccc2O1 (stereo not given),0,3.1,9%,-0.1%,3,-2%,-1%
O=[N+]([O-])c1cccc(N=Cc2ccccc2)c1,6,.,?,.,.,.,7%
CCC(NC(=O)c1ccccc1NC(=O)c1ccccc1)C(=O)NNC(=O)c1cccnc1 (stereo not given),-4,1.8,-18%,-1.2%,.,-4%,7%
COc1ccc(-c2c(C3=CCCCC3)oc3ccc(-c4ccc5c(c4)OCO5)cc23)cn1,-6,.,2%,26%,.,.,-1%
COc1ccc(N2CCN(C(=O)COC(=O)CNC(=O)c3ccc(Cl)cc3Cl)CC2)cc1,3,.,-11%,-2.7%,0,.,-9%
COc1cccc(N2C(=NC(=O)C3CCCO3)SC3CS(=O)(=O)CC32)c1 (stereo not given),3,.,?,1.6%,?,12%,6%
Cc1cc(=O)n2nc(N3CCC(C(=O)NCc4ccc(F)cc4)CC3)sc2n1,5&-13,.,?,-2.7%&-4.0%,27,10%,-8%
Cc1cc(Nc2cccc(F)c2)n2nc(C)nc2n1,-2,0.7,?,1.4%,17,23%,-3%
COc1ccc(-c2cc(C(=O)O)sc2C)cc1,-9,-4.4,15%[15.4 µM],.,-12,25%,-18%
Cc1cc2nnc(SCC(=O)NCC3CCCO3)n2c2ccccc12 (stereo not given),12,-0.7,52%[15.4 µM],.,-11,2%,13%
CC(=O)OC1CC(c2cc(C(C)(C)C)c(O)c(C(C)(C)C)c2)=NO1 (stereo not given),.,1.6,27%,0.8%,-9,0%,0%
CCOC(=O)N1CCN(c2cc(=O)n(-c3cccc(Br)c3)c(=O)[nH]2)CC1,32,7.7,-49%[inhibitor],-0.2%,14,-11%,-8%
CC(C)OP(=O)(OC(C)C)C(O)c1cccc([N+](=O)[O-])c1 (stereo not given),-5,1.1,-12%[15.4 µM],.,22,21%,1%
C[C@@H](NC(=O)[C@@H]1Cc2ccccc2CN1C(=O)OC(C)(C)C)C(=O)NCC1CCCO1 (stereo not given in full),14,.,?,-0.9%,13,18%,-20%
CC1CCCC(C)N1c1nnc(N)s1 (stereo not given),0,-0.3,0%,-2.3%,30,-3%,5%
CC1CCCN(C(=O)c2ccc3c(c2)OCO3)C1 (stereo not given),-7,-2.3,-38%[inhibitor],-3.3%,13,5%,10%
Cc1cc(C(F)F)n2nc(C(=O)Nc3sc4c(c3C#N)CCC4)nc2n1,23,2.4,-29%,-0.7%,2,?,0%
CCOc1cc(C(=S)N2CCN(C)CC2)ccc1OCC(=O)N1CCCC1,29,.,10%,0.9%,.,.,2%
Cc1cccc(NC(=O)CN2CCN(C(=O)CNC(=O)Cc3cccc4ccccc34)CC2)c1C,6,.,15%,-1.2%,0,.,6%
CC(=O)Oc1cc2c(cc1Cl)C1(CC(c3ccccc3Cl)O2)CC(C)(C)NC(=S)N1 (stereo not given),11,-0.9,-26%,-2.8%,12,10%,-17%
N#C/C(=C(/O)COC(=O)Cc1c[nH]c2ccccc12)c1nc2ccccc2[nH]1,6,?,?,-8.1%,16,27%,3%
O=C(NCC1CCCO1)/C(=C\c1ccco1)NC(=O)c1ccccc1 (stereo not given),-7,-1.8,13%,-0.6%,25,?,-8%
Cc1ccc(S(=O)(=O)NCCC(=O)Nc2nccs2)cc1,-7,-3.6,1%[15.4 µM],-3.3%,-11,7%,9%
CC1CCCN(CCCOc2ccc([N+](=O)[O-])cc2)C1 (stereo not given),-5,-0.9,-4%,7.4%,-21,-11%,11%
O=C(N/N=C/c1cccc2ccccc12)c1ccccc1Cl,-29,7.2,-55%[inhibitor],-3.1%,3,-10%,-2%
CCSc1ccc(/C(N)=N/OC(=O)c2cccs2)cn1,-10,.,25%,-2.3%,1,-3%,5%
COC(=O)c1cc(C)sc1NC(=O)c1cccnc1,5,0.2,-1%,17%,1,2%,5%
CC1Cc2ccccc2N1C(=O)CSc1nnc(-c2ccc(S(=O)(=O)N3CCOCC3)cc2)n1C (stereo not given),28,0.5,-77%,-1.4%,4,13%,-6%
CCCCn1c(-c2cc(Cl)ccc2OC)n[nH]c1=S,-2,0.0,14%,-6.6%,0,?,-4%
CC(C)NC(=O)NC(=O)COc1ncnc2sccc12,-17,1.5,25%,-6.3%,?,-12%,6%
O=C(Cc1c(F)cccc1Cl)Nc1nc2ccccc2s1,-8,0.3,-27%,1.3%,-4,5%,-13%
Fc1ccc2nc(N3CCCCC3)sc2c1,12,1.6,-3%[15.4 µM],1.2%,-10,-11%,0%
COc1ccc(CNC(=O)COc2ccc(S(=O)(=O)NC(C)C)cc2)cc1,-5,3.9,-11%,0.2%,7,9%,-2%
CCCCC(=O)Nc1ccc(C(=O)NCCCn2ccnc2)cc1,5,-0.1,-48%[inhibitor],-0.5%,27,13%,12%
CCCCC(=O)Nc1ccc(N2CCCC2)cc1,-8,.,-17%,0.7%,.,.,4%
COc1ccc(S(=O)(=O)N2CCN(Cc3ccccc3[N+](=O)[O-])CC2)cc1,19,.,21%,.,.,.,-14%
COCCC1CCCCN1C(=O)c1ccc2nc(Cc3ccccc3F)oc2c1 (stereo not given),-10,0.1,-51%[inhibitor],-4.7%,-1,5%,-18%
Cc1ccc(S(=O)(=O)Nc2ccc(NC(=O)CN3CCCCC3)cc2)cc1,23,-0.5,-15%,-0.6%,-16,12%,0%
Cc1nn(CC(=O)OCCOc2ccc(Br)cc2)c(C)c1[N+](=O)[O-],9,2.3,2%,0.7%,1,12%,-6%
ClCc1c2ccccc2cc2ccccc12,58,.,.,4.8%,-2,.,20%
COc1ccc(NC(=O)Nc2ccc(C(=O)N3CCOCC3)cc2)cc1,18,0.3,-7%,3.1%,-4,3%,-8%
COCCN(C(=S)Nc1ccc(C(C)C)cc1)C(C)c1cccs1 (stereo not given),24,-5.9,7%,2.3%,-7,18%,-22%
COc1cc(CNn2cnnc2)ccc1OCC(=O)NC(C)(C)C,-5,-3.2,-39%[inhibitor],-0.9%,3,12%,15%
# Remaining list, next part.
SMILES,TRPML1 blocker,Menin-MLL FL inh,gsp agonist,ClpP mod,TRPV1 PAM,Sfp PPTase inh,gsp antag
COc1ccc(C)cc1N(C(=O)CNC(=O)c1ccco1)C(C(=O)NC1CCCC1)c1cccnc1 (stereo not given),0,1.4,-38%[inhibitor],1.1%,3,14%,9%
Cc1ccc(C(=O)OCC(=O)NC(C)c2ccccc2)s1 (stereo not given),5,.,-44%[inhibitor],.,.,.,2%
CCOC(=O)c1ccccc1NC(=O)c1cccc(F)c1,1,1.4,-16%,-6.6%,2,9%,-3%
O=C1C2=C(CCCC2)C(=O)N1c1cccc(OCCBr)c1,?,-0.9,0%,1.2%,4,17%,15%

# Screens deposited in PubChem BioAssay by National Center for Advancing Translational Sciences (NCATS).
